High-throughput results from PubChem.
VACV Venus inh: qHTS for Stage-Specific Inhibitors of Vaccinia Orthopoxvirus: Venus Reporter Primary qHTS; Vaccinia virus Venus reporter expression, fluorescence; Potency, µM (top dose mostly 36.5 µM), without a hit: at the top dose activity change, negative = inhibition, actives largely listed as inhibitors; 330,000 compounds, 0.46% hits; AID 720580, 2013; active means well fitted inhibition curve with a large enough effect; inconclusive means small, poorly fitted or top-dose-only effect; inactive means no such curve, though single readings can be large or run the other way; tested in A549 cells; further: nearly all actives have a fitted effect of over 30% in size; inactives centre near -10
VACV mCherry inh: qHTS for Stage-Specific Inhibitors of Vaccinia Orthopoxvirus: mCherry Reporter Primary qHTS; Vaccinia virus mCherry reporter infection, fluorescence; about a quarter of the inactives have no number; Potency, µM (titrated, usually from 36.5 µM), for inactives: top-dose activity change, negative = inhibition, most hits filed as inhibitors; 310,000 compounds, 0.63% hits; active = well fitted inhibition curve with a large enough effect; inconclusive = small, poorly fitted or top-dose-only effect; inactive = no such curve, though single readings can be large or run the other way; tested in A549 cells; further: nearly all actives have a fitted effect of over 35% in size; inactives centre near -10
Starred values were filed as active, the others as inactive; & = joins results of further samples; [ ] = remark or other dose. On the % scale 0 is the no-effect control and ±100 the full control effect; potency means the concentration at half of the fitted maximal effect.

Results for COc1ccccc1CNC(=O)[C@@H]1CCCN1S(=O)(=O)c1ccccc1F ?
VACV Venus inh: -3%; VACV mCherry inh: 4%

How did COc1ccccc1N1CCN(C(=O)Cn2cnc3onc(-c4ccc(F)cc4)c3c2=O)CC1 do in these assays?
VACV Venus inh: 5%; VACV mCherry inh: 1%

How did C=CCN=C(NC#N)SCC(=O)NC(C)(C)C do in these assays?
VACV Venus inh: 14%

How did COc1ccc(C)cc1C1=CC(=O)C[C@H](c2ccc(F)cc2)C1 do in these assays?
VACV Venus inh: -18%; VACV mCherry inh: inconclusive

How did NC(=O)c1cc2ccccc2o/c1=N\NC(=O)c1ccco1 do in these assays?
VACV Venus inh: -18%; VACV mCherry inh: inactive

What do the screens show for `O=C(O)C(Oc1ccc2c3c(c(=O)oc2c1)CCC3)c1ccccc1` (stereo not drawn)?
VACV Venus inh: -10%; VACV mCherry inh: -12%

Results for CCN(CC(=O)Nc1ccc2c(c1)OCCO2)C(=O)c1ccc(S(=O)(=O)N(C)C)cc1 ?
VACV Venus inh: -13%; VACV mCherry inh: -14%

How did CCc1cccc2c(C(=O)C(NCCCOC)c3ccccc3)c[nH]c12 (stereo not drawn) do in these assays?
VACV Venus inh: 5%; VACV mCherry inh: inactive

How did CCOC(=O)C1=C(CSc2nc(-c3ccccc3)ccc2C#N)OC(N)=C(C#N)C1c1ccc(OC)cc1 (stereo not drawn) do in these assays?
VACV Venus inh: 118%[activator]

Results for c1cc(-c2ccsc2)n2ccnc2c1 ?
VACV Venus inh: 11%; VACV mCherry inh: inactive

What do the screens show for `O=C(Nc1ccc(Br)c(C(F)(F)F)c1)c1ccc(C(F)(F)F)cc1`?
VACV Venus inh: inconclusive; VACV mCherry inh: inconclusive

How did COc1ccc(CCNC(=O)CCNC(=O)c2ccco2)cc1 do in these assays?
VACV Venus inh: -13%; VACV mCherry inh: -5%

Results for OC(CCN1CCCCC1)(c1ccccc1)C1CCCCC1 (stereo not drawn) ?
VACV Venus inh: -23%&-8%; VACV mCherry inh: -14%

Results for CCN(CCCNC(=O)C1CCN(S(=O)(=O)c2cccc3nonc23)CC1)Cc1ccccc1 ?
VACV Venus inh: inconclusive

How did CC(=O)c1ccc(N2CCN(C(=O)c3ccc(-c4ccccc4)cc3)CC2)cc1 do in these assays?
VACV Venus inh: -9%; VACV mCherry inh: inactive

How did Cc1ccc(CN2CCCn3nc(C(=O)NCCc4ccccc4C)cc3C2=O)cc1 do in these assays?
VACV Venus inh: -13%; VACV mCherry inh: -18%

How did CCOc1cc2c(cc1/C=C(/C#N)c1ccc(C(=O)O)cc1)OCO2 do in these assays?
VACV Venus inh: -17%; VACV mCherry inh: -9%

How did CCCNC(=O)Cn1cc(S(=O)(=O)N2CCCC2)c(S(=O)(=O)N2CCCC2)c1 do in these assays?
VACV Venus inh: 2%; VACV mCherry inh: -10%

How did CC1(C)C(C(=O)NCc2ccco2)C1(C)C do in these assays?
VACV Venus inh: -17%

How did O=C(CNc1ccc(C(F)(F)F)cc1[N+](=O)[O-])OCC(=O)c1ccccc1 do in these assays?
VACV Venus inh: inconclusive

A draw from above in order of number of heavy atoms, lowest first:
Results for OC(CCN1CCCCC1)(c1ccccc1)C1CCCCC1 (stereo not drawn) ?
VACV Venus inh: -23%&-8%; VACV mCherry inh: -14%

What do the screens show for `O=C(Nc1ccc(Br)c(C(F)(F)F)c1)c1ccc(C(F)(F)F)cc1`?
VACV Venus inh: inconclusive; VACV mCherry inh: inconclusive

How did CCOc1cc2c(cc1/C=C(/C#N)c1ccc(C(=O)O)cc1)OCO2 do in these assays?
VACV Venus inh: -17%; VACV mCherry inh: -9%

How did Cc1ccc(CN2CCCn3nc(C(=O)NCCc4ccccc4C)cc3C2=O)cc1 do in these assays?
VACV Venus inh: -13%; VACV mCherry inh: -18%

More compounds:
What do the screens show for `Cc1cscc1NC(=O)/C=C/C(=O)O`?
VACV Venus inh: -5%; VACV mCherry inh: inconclusive

Results for COc1cc2nc(N3CCCN(C)CC3)nc(NC(C)C)c2cc1OC ?
VACV Venus inh: -29%; VACV mCherry inh: -17%

How did O=C(N/N=C1/CC2C=CCC12)c1ccc(Br)o1 (stereo not drawn) do in these assays?
VACV Venus inh: -3%; VACV mCherry inh: -1%

How did C[C@@H]1CN([C@@H](C)CO)S(=O)(=O)c2ccc(Br)cc2O[C@@H]1CN(C)C(=O)c1ccccn1 do in these assays?
VACV Venus inh: -7%; VACV mCherry inh: inactive

What do the screens show for `CS(=O)(=O)N1CCC(C(=O)NCc2ccc3c(c2)OCO3)CC1`?
VACV Venus inh: -23%; VACV mCherry inh: inactive

How did Cc1ccc2nc(-c3ccccc3Cl)cc(C(=O)Nc3cc(C)on3)c2c1 do in these assays?
VACV Venus inh: -12%

Results for Cc1c(C(=O)Nc2cccc(C#N)c2)sc2nc3n(c(=O)c12)CCCCC3 ?
VACV Venus inh: -7%; VACV mCherry inh: -6%

What do the screens show for `Cc1cc(N)n(-c2ccc(Oc3ccccc3)c(S(=O)(=O)O)c2)n1`?
VACV Venus inh: -14%; VACV mCherry inh: inactive

How did Cc1ccc(C(=O)N2CCN(C)CC2)cc1S(=O)(=O)N1CCCCC1 do in these assays?
VACV Venus inh: -17%; VACV mCherry inh: inactive

How did CCOc1ccc(CCNC(=O)c2ccc3c(c2)N(Cc2ccc(F)cc2)CCS3)cc1 do in these assays?
VACV Venus inh: -22%; VACV mCherry inh: -26%

Results for O=C(Nc1nnc(Cc2ccccc2)s1)c1ccccc1 ?
VACV Venus inh: -11%; VACV mCherry inh: inactive

What do the screens show for `COc1ccc(NC(=O)N2CCC(O)(c3cccnc3)CC2)c(OC)c1`?
VACV Venus inh: -1%; VACV mCherry inh: -9%

What do the screens show for `O=C(COC(=O)c1ccccn1)Nc1nc(-c2ccccc2)cs1`?
VACV Venus inh: 7%; VACV mCherry inh: -4%

How did Cc1nc(COc2cc3oc(=O)cc(C)c3cc2Cl)cs1 do in these assays?
VACV Venus inh: 18%; VACV mCherry inh: -13%

Results for C[C@@H]1CN([C@@H](C)CO)C(=O)CCCn2nncc2CO[C@H]1CN(C)C(=O)NC1CCCCC1 ?
VACV Venus inh: -2%; VACV mCherry inh: inactive

What do the screens show for `CC(C)C(NC(=O)c1ccccc1)C(=O)OCc1cc([N+](=O)[O-])cc2c1OCOC2` (stereo not drawn)?
VACV Venus inh: -14%; VACV mCherry inh: -10%

What do the screens show for `Cc1ccc2nc(C)c(C)nc2c1N`?
VACV Venus inh: -34%

How did O=C1c2ccccc2C(=O)N1CCCc1nc(-c2ccc(Cl)cc2)no1 do in these assays?
VACV Venus inh: 7%; VACV mCherry inh: -12%

Results for COc1cc(/C=C/c2ccc(O)cc2)cc(OC)c1 ?
VACV Venus inh: 9%; VACV mCherry inh: 27%

What do the screens show for `CCc1nc2ccc(C(=O)N(C)Cc3ccco3)cn2c1N(CC)C(=O)NCCc1ccccc1`?
VACV Venus inh: -11%; VACV mCherry inh: 15%

Brought forward from above: six entries; new compounds follow.
Results for C[C@@H]1CN([C@@H](C)CO)C(=O)CCCn2nncc2CO[C@H]1CN(C)C(=O)NC1CCCCC1 ?
VACV Venus inh: -2%; VACV mCherry inh: inactive

What do the screens show for `CC(C)C(NC(=O)c1ccccc1)C(=O)OCc1cc([N+](=O)[O-])cc2c1OCOC2` (stereo not drawn)?
VACV Venus inh: -14%; VACV mCherry inh: -10%

What do the screens show for `Cc1ccc2nc(C)c(C)nc2c1N`?
VACV Venus inh: -34%

How did O=C1c2ccccc2C(=O)N1CCCc1nc(-c2ccc(Cl)cc2)no1 do in these assays?
VACV Venus inh: 7%; VACV mCherry inh: -12%

Results for COc1cc(/C=C/c2ccc(O)cc2)cc(OC)c1 ?
VACV Venus inh: 9%; VACV mCherry inh: 27%

What do the screens show for `CCc1nc2ccc(C(=O)N(C)Cc3ccco3)cn2c1N(CC)C(=O)NCCc1ccccc1`?
VACV Venus inh: -11%; VACV mCherry inh: 15%

What do the screens show for `O=C(CSc1cn(CC(=O)N2CCCC2)c2ccccc12)Nc1ccc(Cl)cc1`?
VACV Venus inh: -21%; VACV mCherry inh: -16%

Results for c1ccc(Nc2c(-c3ccccc3)nc3ncccn23)cc1 ?
VACV Venus inh: 5%; VACV mCherry inh: 2%

Results for CCOC(=O)c1c(C)[nH]c(C(=O)OCC(=O)Nc2sc(C(=O)N(C)C)c(C)c2C(=O)OCC)c1C ?
VACV Venus inh: -29%; VACV mCherry inh: inconclusive

What do the screens show for `CSc1oc(-c2ccc(F)cc2)nc1S(=O)(=O)c1ccccc1`?
VACV Venus inh: -13%; VACV mCherry inh: -14%

What do the screens show for `Cc1cc(C(=O)NCc2cccs2)ccc1[N+](=O)[O-]`?
VACV Venus inh: -13%; VACV mCherry inh: -12%

Results for COc1ccccc1N1CCN(C(=O)c2cc(-c3cccs3)on2)CC1 ?
VACV Venus inh: -7%; VACV mCherry inh: -14%

What do the screens show for `O=C(CSC1=NCCS1)N1CCN(c2ccccc2)CC1`?
VACV Venus inh: 3%; VACV mCherry inh: 17%

How did CCOC(=O)c1[nH]c2ccccc2c1NC(C)=O do in these assays?
VACV Venus inh: 2%; VACV mCherry inh: inconclusive

What do the screens show for `O=C(NCc1cccnc1)C(=O)NCC(c1ccco1)N1CCN(c2ccccc2F)CC1` (stereo not drawn)?
VACV Venus inh: -9%; VACV mCherry inh: -10%

Results for COC(=O)c1ccc(NC(=S)NC(=O)c2cc(-c3ccccc3)nc3ccccc23)cc1 ?
VACV Venus inh: -19%; VACV mCherry inh: -14%

What do the screens show for `CCCCC(=O)Nc1ccc2nc(SCC(=O)N3CCc4ccccc43)sc2c1`?
VACV Venus inh: -6%; VACV mCherry inh: -14%

How did O=C(NOCc1ccccc1)c1ccccc1 do in these assays?
VACV Venus inh: -9%; VACV mCherry inh: inactive

How did O=C(O)c1ccc(-n2cccc2/C=C2/SC(=O)N(CC(=O)N3CCCC3)C2=O)cc1 do in these assays?
VACV Venus inh: 1%; VACV mCherry inh: -15%

What do the screens show for `CC1=C(C(=O)N(C(C)C)C(C)C)CC(CC(=O)NC2CC2)C(=O)N1CCCN1CCCC1=O` (stereo not drawn)?
VACV Venus inh: 5%; VACV mCherry inh: 14%

What do the screens show for `O=Cc1cc2ccccc2nc1SCc1ccc(Cl)c(Cl)c1`?
VACV Venus inh: -3%; VACV mCherry inh: -8%

How did CCOC(=O)C1CCN(Cc2c(O)c3ccccc3oc2=O)CC1 do in these assays?
VACV Venus inh: -12%; VACV mCherry inh: inactive

How did Cc1ccc(-c2nnn(CC(=O)N(CC(=O)NC3CCCCC3)c3cccc(F)c3)n2)o1 do in these assays?
VACV Venus inh: -6%; VACV mCherry inh: 5%

Results for COc1cc(/C=C(/C#N)C(=O)Nc2ccc(C)cc2)ccc1Oc1nc(Cl)ncc1F ?
VACV Venus inh: -8%; VACV mCherry inh: -14%

Results for COc1ccc(CNc2ncncc2-c2ccc3c(c2)OCO3)c(OC)c1 ?
VACV Venus inh: 2%; VACV mCherry inh: -1%

What do the screens show for `CCN(CC(=O)Nc1ccc(NC(C)=O)cc1)C(=O)COc1ccccc1Cc1ccccc1`?
VACV Venus inh: -25%; VACV mCherry inh: -22%

How did CC[C@]12c3[nH]c4cc(CCC(=O)N(C)C)ccc4c3CCN1C(=O)[C@@H](CC(=O)NCCCN(C)C)C[C@@H]2C(=O)N1CCN(C(=O)C2CC2)CC1 do in these assays?
VACV Venus inh: 14%; VACV mCherry inh: -4%

Results for O=C(Nc1ccc(F)cc1)c1ccc(C(=O)N2CCCC(O)C2)cc1 (stereo not drawn) ?
VACV Venus inh: -18%; VACV mCherry inh: -12%

How did CN(C)c1nc(NCc2ccccc2)nc(N/N=C/c2ccc(Br)cc2)n1 do in these assays?
VACV Venus inh: -14%; VACV mCherry inh: inactive

Results for COc1ccc(-c2cc(C(=O)Nc3ccc4c(c3)OCO4)no2)cc1 ?
VACV Venus inh: 4%&-3%; VACV mCherry inh: -6%&6%

What do the screens show for `CCc1ccc(C(=O)NC(=S)Nc2ccc(N3CCOCC3)cc2)cc1`?
VACV Venus inh: inconclusive; VACV mCherry inh: inconclusive

What do the screens show for `COc1ccc(/C=N/NC(=O)c2ccc(F)cc2)cc1CN1CCc2cc(OC)c(OC)cc2C1C` (stereo not drawn)?
VACV Venus inh: 8%; VACV mCherry inh: inactive

How did CCN(CC)CCCN(C(=O)c1ccc(F)cc1)c1nc(-c2ccc(OC)cc2)cs1 do in these assays?
VACV Venus inh: -9%; VACV mCherry inh: -19%

Results for Cc1ccc(CSc2ncnc3ccccc23)cc1 ?
VACV Venus inh: -16%; VACV mCherry inh: -17%

Results for NC(=O)C1CCN(C(=O)c2ccc3c(=O)n(Cc4ccco4)c(SCC(=O)c4ccccc4)nc3c2)CC1 ?
VACV Venus inh: -14%; VACV mCherry inh: -2%

What do the screens show for `C[C@H]1CN([C@@H](C)CO)C(=O)CCCn2nncc2CO[C@H]1CN(C)C(=O)c1ccc2ccn(C)c2c1`?
VACV Venus inh: -5%; VACV mCherry inh: -11%

How did O=C(OCc1cn([C@H]2C[C@H](c3ccccc3)N(Cc3cccs3)C[C@@H]2O)nn1)c1ccccc1 do in these assays?
VACV Venus inh: -5%; VACV mCherry inh: -14%

Results for CN(C(=O)c1cccc(NC(=O)Cc2ccc(NC(=O)C3CCCN(C(=O)C4CCCCC4)C3)cc2)c1)C1CCCC1 (stereo not drawn) ?
VACV Venus inh: inconclusive; VACV mCherry inh: -4%
